RE007 growth inh = less growth of the S. pombe RE007 Vpr strain; 360,000 compounds, 0.21% hits; AID 651644; S. pombe RE007 Vpr strain, BacTiter-Glo ATP luminescence, 24 h; control for the full effect not named in the record; Potency, µM (doses to about 92.2 µM), inactives show at the top dose activity change, negative = less growth; active = well fitted falling curve with a large enough effect; inconclusive = small, poorly fitted or top-dose-only effect; inactive = no such curve, though single readings can be large or run the other way;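 also: nearly all actives have a fitted effect of over 50% in size; the assay follows cell death caused by Vpr and the record does not say whether a fall means rescue or toxicity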
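Fission yeast strain RE007, carrying one chromosomally integrated HIV-1 vpr copy, was seeded at OD 0.01 in PMG+AL medium with 23 nL pinned compound. After 24 h at 30 °C and 99% humidity, viability was read by BacTiter-Glo luminescence.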
StopGo reporter = lowers the luciferase signal of an FMDV 2A StopGo reporter. AID 1159524. human cells with a luciferase reporter of 2A StopGo recoding; control for the full effect not named in the record. 410,000 compounds, 1.2% hits. Potency, µM (highest dose often 57.9 µM), inactives show top-dose signal change, negative = less light; active = well fitted falling curve with a large enough effect; inconclusive = small, poorly fitted or top-dose-only effect; inactive = no such curve, though single readings can be large or run the other way; tested in HEK293T cells; also: nearly all actives have a fitted effect of over 45% in size; luciferase light after 4 h
Numbers without * were called inactive; ? = inconclusive; & = joins results of further samples; [ ] = remark or other dose. % is scaled to controls: 0 for no effect and ±100 for the full control effect; potency is read from the fitted curve at half-maximal effect.

SMILES | RE007 growth inh | StopGo reporter
CSc1ncnc2c1ncn2CCCNCCCc1ccccc1 | 0.6% | -15.7%
Nc1ncc(-c2ccc(F)cc2)nc1N1CCN(CCO)CC1 | 1.7% | -24.2%
CN(Cc1ccccc1)C(=O)COC(=O)c1c[nH]c2ccccc12 | -13.4% | 46.0%[activator]
CC1(C(=O)NS(=O)(=O)c2ccc(Cl)s2)CCN1C(=O)CCc1ccccc1 (stereo not drawn) | 11.2% | 24.2%
C=CC1=CCN(S(=O)C(C)(C)C)[C@@H]1CCO (stereo partly drawn) | -9.2% | -15.5%
CC1(C(=O)NCCc2c[nH]c3ccccc23)CCN1Cc1csc2ccccc12 (stereo not drawn) | 0.5% | -15.8%
COc1ccc(OCC(=O)Nc2ccc3c(c2)nc(CCN2CCN(c4ccccn4)CC2)n3C)cc1 | -12.2% | ?
COCCNC(=O)C1(C)CCCN(Cc2cccc(OC(=O)c3ccccc3)c2)C1 (stereo not drawn) | -19.2% | -17.1%
CC(C)(C)C(=O)N1Cc2cc(-c3cccc(F)c3)ccc2-n2nncc2C1 | 1.8% | -20.4%
O=C(NCc1ccncc1)c1csc([C@@H]2C[C@H](O)[C@@H](CO)O2)n1 | -3.1%[18.4 µM] | -10.7%
COc1cc(NC(=O)C2(C)CCCN2C)cc(OC)c1OC (stereo not drawn) | -5.9% | -13.0%
CN(CC(=O)Nc1cc(S(=O)(=O)N2CCCC2)ccc1Cl)Cc1nc2ccccc2c(=O)[nH]1 | -0.2% | ?
COc1ccccc1-c1cc(NC=O)c2ncc(-c3cccc(C(F)(F)F)c3)n2c1 | -2.6%[18.4 µM] | 0.0%
CC1Sc2ccccc2N(Cc2ccccc2)C1=O (stereo not drawn) | -11.1% | -20.8%
CCS(=O)(=O)N1CCN(C(=O)c2ccc3nc(C)c(N(C)C(=O)CCc4ccccc4)n3c2)CC1 | -6.0%[18.4 µM] | -4.1%
COc1cccc(C(NC(C)=O)c2nc(-c3cccc(NC(C)=O)c3)cs2)c1 (stereo not drawn) | 12.0% | -1.2%
COc1ccc(OC)c(CN2C(=O)c3ccccc3C2c2nnnn2-c2c(C)cccc2C)c1 (stereo not drawn) | 1.6% | -3.9%
C[C@@H]1CN([C@@H](C)CO)C(=O)CCCn2nncc2CO[C@H]1CN(C)C(=O)Nc1ccnc(N2CCOCC2)c1 | -1.3% | -2.2%
COc1c2ccccc2nn1C(C)C | -19.8% | -15.7%
Cc1ccc(C(=O)Nc2nnc([C@H]3C[C@H](O)[C@@H](CO)O3)s2)cc1 | -7.0% | 14.5%
COc1cccc(-n2cc(CN(C)C(=O)C3CCC(=O)N(C4CC4)C3)cn2)c1 (stereo not drawn) | 8.5% | 4.6%
O=C(Nc1cccc(C(F)(F)F)c1)c1csc([C@@H]2C[C@H](O)[C@@H](CO)O2)n1 | -3.4% | -9.6%
C[C@H]1CN([C@@H](C)CO)C(=O)c2cc(C3=CCCC3)cnc2O[C@@H]1CN(C)C(=O)c1ccncc1 | -13.8% | -13.6%
CC(C)Oc1cccc(C(=O)Nc2nnc([C@@H]3C[C@H](O)[C@@H](CO)O3)s2)c1 | 3.9%[18.4 µM] | 13.5%
NS(=O)(=O)c1ccc(CCNc2ccn3nc(-c4ccc(OCCN5CCOCC5)cc4)cc3n2)cc1 | -13.5% | -21.8%
O=C(O)C1=C[C@H](c2ccccc2)C[C@H](OCCCCO)O1 | 9.5% | 2.5%
CCN1C[C@@H]2[C@@H]3C(=O)N(C)C(=O)[C@@H]3[C@](CC)(C1=O)N2C(=O)c1ccc(Cl)cc1 | 6.0% | 0.2%
CCCCn1nnnc1C(c1ccccc1OC(F)(F)F)N1CCN(C/C=C/c2ccccc2)CC1 (stereo not drawn) | -4.5% | -0.9%
CC(=O)N1CCC(C(=O)N2c3ccccc3N=C(c3ccc(C(F)(F)F)cc3)C2C(=O)NC2CCCC2)CC1 (stereo not drawn) | -2.3% | 16.3%
Cc1cccc(C)c1-n1nnnc1SCc1nc(N)nc(N(C)C)n1 | 1.2% | -28.1%
C[C@@H](NC(=O)[C@@H]1CCCN1C(=O)[C@@H]1CCCN1C(=O)c1cccs1)c1ccccc1 | 1.4% | -21.2%
COc1ccc(CNC(=O)C2(CC3CC(c4ccccc4)=NO3)CCN(C(=O)C3(C)CC3)CC2)cc1 (stereo not drawn) | 13.8% | 0.4%
COc1ccc(-n2nnnc2C(CCc2ccccc2)N2CCC(n3c(=O)[nH]c4ccccc43)CC2)cc1 (stereo not drawn) | -2.9% | 28.2µM*
CC(=NNC(N)=S)c1ccc2cc3c(cc2c1)OCO3 | -12.7% | 12.3%
CC1=C(C(=O)N(C(C)C)C(C)C)CC(CC(=O)NCCN2CCOCC2)C(=O)N1CCC1=CCCCC1 (stereo not drawn) | -7.0% | -16.4%
CC(=O)NCCNC(=O)C1Cc2c(-c3ccccc3)ccnc2O1 (stereo not drawn) | 4.3% | -15.2%
CCCS(=O)(=O)NC(=O)C1(C)CCCN(C(=O)c2ccco2)C1 (stereo not drawn) | 10.2% | -16.4%
COc1ccccc1S(=O)(=O)N(C)C[C@@H]1Oc2cc(C#CCC(C)C)ccc2S(=O)(=O)N([C@H](C)CO)C[C@@H]1C | 2.6% | -13.7%
CCCCOc1ccc(C(=O)NCCN2CCC(n3c(=O)[nH]c4ccccc43)CC2)cc1 | -22.1% | ?
CC(C)(C)c1ccc(/C=C(\c2nc3ccccc3[nH]2)S(=O)(=O)c2ccccc2)cc1 | 7.1% | 20µM*

Some of these compounds in order of SMILES length, ascending:
SMILES | RE007 growth inh | StopGo reporter
Cc1cccc(C)c1-n1nnnc1SCc1nc(N)nc(N(C)C)n1 | 1.2% | -28.1%
O=C(O)C1=C[C@H](c2ccccc2)C[C@H](OCCCCO)O1 | 9.5% | 2.5%
CCCCn1nnnc1C(c1ccccc1OC(F)(F)F)N1CCN(C/C=C/c2ccccc2)CC1 (stereo not drawn) | -4.5% | -0.9%
COc1ccc(CNC(=O)C2(CC3CC(c4ccccc4)=NO3)CCN(C(=O)C3(C)CC3)CC2)cc1 (stereo not drawn) | 13.8% | 0.4%
CC(=O)N1CCC(C(=O)N2c3ccccc3N=C(c3ccc(C(F)(F)F)cc3)C2C(=O)NC2CCCC2)CC1 (stereo not drawn) | -2.3% | 16.3%

Carrying on:
SMILES | RE007 growth inh | StopGo reporter
CCCCn1nnnc1C(c1ccc(OC)cc1)N1CCN(C/C=C/c2ccccc2)CC1 (stereo not drawn) | -17.4% | 32.5%[activator]
Fc1ccc(-c2nc3ccc(Br)cn3c2Cc2ccccc2C(F)(F)F)cc1 | 31.2% | 60.1%[activator]
CC(=O)Oc1ccc(-c2csc(Nc3ccccn3)n2)cc1 | -8.3% | -2.2%
Cc1ccc(NC(=O)c2ncn(CCCN(CCCn3cnc(C(=O)Nc4ccc(C)c(C)c4)n3)Cc3ccc4[nH]ccc4c3)n2)cc1C | 52.1% | -21.2%
COCOc1ccc(C2CC(=O)c3c(OCOC)cc(OCOC)cc3O2)cc1 (stereo not drawn) | 12.9% | -9.6%
COc1ccc(-c2noc3c2-c2nc(-c4ccccc4Cl)sc2CC3)cc1 | 4.2% | -8.4%
O=C(NCc1cccc(Br)c1)c1cc(-c2ccccc2)nn1CC1CC(c2cccc([N+](=O)[O-])c2)=NO1 (stereo not drawn) | -0.5% | 16.8%
CC1OC(C(C)(C)C)Cc2[nH][nH]c(=O)c21 (stereo not drawn) | 1.6% | 0.0%
Cc1ccccc1-c1csc(C(O)(c2ccccc2)C(F)(F)F)n1 (stereo not drawn) | ? | -16.3%
O=[N+]([O-])c1cc2c(cc1Br)-c1ccccc1C2 | -7.0% | 0.3%
O=C(Nc1c(-c2ccc3c(c2)OCO3)[nH][nH]c1=O)c1cccc(C(F)(F)F)c1 | 5.3% | 0.0%
CCOc1ccc(OCC(=O)N2CCN(S(=O)(=O)c3ccccc3)CC2)cc1 | -1.7% | -37.0%
COCCCN1C(=O)C(CC(=O)NCC2CCCCC2)CC(C(=O)N2CCOCC2)=C1C (stereo not drawn) | 6.4% | -10.2%
Cc1ccc(-c2cnc3c(c2)C(=O)N([C@H](C)CO)C[C@@H](C)[C@@H](CN(C)C(=O)Cc2ccccc2)O3)cc1 | -11.3% | -4.0%
CC(C)(C)n1nnnc1C(c1ccccc1)N1CCCN(Cc2ccc(F)cc2)CC1 (stereo not drawn) | -23.8% | -11.5%
CCOc1ccc(N=Cc2ccc(N(C)C)cc2)c(O)c1 | ? | 32.6%[activator]
O=C1C2C3C=CC(CC3)C2S(=O)(=O)C2C3C=CC(CC3)C12 (stereo not drawn) | -22.6% | -20.5%
CCCN(C)C1CN(Cc2cn(Cc3ccc(Cl)cc3)nn2)S(=O)(=O)C1 (stereo not drawn) | -8.4% | -15.0%
CCN(CC)C(=O)C1=C(C)N(CCCOC)C(=O)C(CC(=O)NCc2cccc3ccccc23)C1 (stereo not drawn) | -8.2% | 0.0%
CCN(CC)c1ccc(NC(=O)CCCCC(=O)Nc2ccc(N(CC)CC)cc2)cc1 | -5.0% | 1.4%
Cc1ccc2n1Cc1cnnn1-c1ccccc1-2 | 2.0% | -12.1%
CC(C)(C)c1cc2nc(NCCOc3ccccc3)ccn2n1 | 4.6% | -7.6%
COc1ccc(NC(=O)C2Cc3c(-c4ccco4)ccnc3O2)cc1OC (stereo not drawn) | -18.3% | ?
COCCCNC(=O)C[C@@H]1C[C@@]2(C(=O)OC)CCCCC=C2N(Cc2ccc3c(c2)OCO3)C1=O | 0.7% | -21.2%
Cc1ccc(Cl)cc1-c1cc(C(=O)NCc2ccc(C(F)(F)F)cc2)[nH]n1 | 8.4% | -9.1%
C/C(=N\OC(=O)c1ccc(F)cc1)c1sc(-c2ccc(Cl)cc2)nc1C | 8.5% | 69.0%[activator]
O=C(C[C@H]1CC[C@@H]2[C@H](COC[C@@H](O)CN2Cc2cccc(F)c2)O1)NCC1CCCCC1 | -4.9% | ?
CN(CCO)c1ccc2c(c1)OC[C@H](Cc1ccccc1)NS2(=O)=O | -3.9% | -5.9%
COC(=O)C1=C(C(=O)OC)[C@]2([C@@H]3CCCCN[C@@H](Cc4ccccc4)C(=O)N3Cc3ccccc3)C=C[C@H]1O2 | -9.1% | -27.9%
COC(=O)C1=C(C(=O)OC)[C@@H]2N(C)c3ccccc3[C@@]23C[C@@H](CO)N(C(=O)C2CCC2)C3=N1 | 15.9% | -23.5%
CCCCCN(C(=O)CCC(=O)OCC(=O)NCCc1ccccc1)c1c(N)n(CCCC)c(=O)[nH]c1=O | 2.4% | -15.4%
CSc1ccc(CNC(=O)C2CCC(=O)N(CCc3ccc(Cl)cc3)C2)cc1 (stereo not drawn) | -13.1% | -18.7%
Cc1ccc(N2CCN(C(C(=O)Nc3c(C)cccc3C)c3cc4ccccc4o3)CC2)cc1 (stereo not drawn) | 5.9% | -13.3%
COc1ccc(NC(=O)CN2C(=O)NC(C)(Cc3ccc(OC)c(OC)c3)C2=O)cc1 (stereo not drawn) | -1.7% | -21.5%
Nc1nonc1-n1nnc(C(=O)N/N=C/c2cccc(Cl)c2)c1CN1CCCCCC1 | -2.7% | 0.0%
CC(=O)N1C[C@H]2CON(C)[C@H]2C[C@H]1c1ccc(-c2cccnc2)cc1 | 3.5% | -22.6%
COc1ccccc1-c1ncn(Cc2cccc(-c3ccccc3)c2)c1-c1cc(C)cc(C)c1 | -14.2% | -41.2%
Cc1cn([C@H]2C[C@H](O)[C@@H](CCC(=O)NCC3CCCO3)O2)c(=O)[nH]c1=O (stereo partly drawn) | 14.7% | -24.6%
COc1ccc2c(c1O)C13CCN(C)C(C2)C1CCC(=O)C3 (stereo not drawn) | 14.0% | -5.7%
CC(=O)Nc1cccc(-c2ccnc3c2CC(C)(C(=O)Nc2cccnc2)O3)c1 (stereo not drawn) | ? | 0.0%
O=C(c1ccco1)N1CCN(C(=O)c2ccc(Br)o2)CC1 | -1.0% | -18.3%
CC(C)(C)S(=O)N1Cc2cc(C(=O)N3CCOCC3)nc(-c3cccc(Br)c3)c2[C@@H]1CCO (stereo partly drawn) | -2.0% | -22.3%
Cc1ccc(S(=O)(=O)N(C)C[C@@H]2Oc3ncc(C#CCC(C)C)cc3C(=O)N([C@H](C)CO)C[C@H]2C)cc1 | 28.0% | 10.9%
O=C1NC[C@@H](CCCCN2CCN(CCC3CCCCC3)C(=O)C2=O)N(CCC2CCCCC2)C1=O | 13.6% | 44.5%[activator]
COc1ccccc1C(O)c1ncc(-c2ccc(Cl)cc2)[nH]1 (stereo not drawn) | -11.2% | 10.7%
O=C(COC(=O)c1ccc(F)cc1Cl)NC1CC1 | 7.1% | 21.2%
C[C@@H](CO)NC(=O)c1[nH]cnc1C(=O)Nc1cccc(Cl)c1 | -21.4% | -9.0%
COc1cccc(-c2cc(C(=O)NC3CCCC3)c3ccccc3n2)c1 | -11.6% | -25.7%
COC(=O)C1(C(=O)OC)C[C@H](/C=C/c2ccccc2)N(Cc2ccccc2OC)[C@@H]1c1cccs1 | -8.0%&-8.5% | -14.5%&-9.0%
COc1ccc(-c2oc3ccc(-c4ccc(OC)nc4)cc3c2-c2ccc(OC)cc2)cc1 | 9.4% | 48.2%[activator]
COC(=O)N(C)C[C@H]1OCc2cn(nn2)CCCC(=O)N([C@@H](C)CO)C[C@@H]1C | 7.4% | -7.5%
CCCNCC(=O)Nc1sc2c(c1C(=O)Nc1c(C)n(C)n(-c3ccccc3)c1=O)CCCC2 | -5.0% | -17.1%

These rows are one share of the data, so the mix of outcomes need not match the whole.
